Screening data as filed in PubChem BioAssay.
SMN2 splice enh – SMN2 splice variant enhancement; actives 2.8% (n = 210,000); HEK293 SMN2-luciferase splicing reporter, luminescence, 30-36 h; AID 1458; Potency, µM (top dose mostly 46.1 µM), inactives show at the highest dose activity change, positive = activation, actives largely listed as activators; further: % of control where 0% means no effect; nearly all actives have a fitted effect of over 55% in size
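HEK293 cells carry an SMN2 minigene-luciferase reporter in which exon 7 inclusion puts luciferase in frame. Cells were seeded at 2000 cells/well, attached for 10-12 hours, then exposed to compounds for 30-36 hours at 37C before ONE-Glo luminescence.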
RECQ1 inh – inhibitors of human RECQ1 DNA helicase; actives 0.54% (n = 240,000); AID 2549; P46063; Potency, µM (titrated, usually from 57.3 µM), without a hit: at the highest dose activity, negative = inhibition, hits mostly inhibitors; RECQ1 DNA unwinding, red fluorescence kinetic read;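 further: plate controls were vehicle for no effect and no enzyme for full effect; nearly all actives have a fitted effect of over 30% in size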
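50 nM RECQ1T1 preincubated 15 min with compound in Tris pH 8.0 buffer with MgCl2, DTT, Tween-20 and 2.5 ug/ml poly(dI-dC); started with 200 nM TAMRA/BHQ-2 forked duplex and 2 mM ATP. Unwinding read as fluorescence (525/598 nm), two reads 2 h apart.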
Tau ThT inhib – blocks human tau fibril formation measured by thioflavin T; recombinant tau K18 P301L, heparin-induced fibrillization, ThT fluorescence; P10636; actives 2.1% (n = 270,000); AID 1460; Potency, µM (series often up to 57.4 µM), for the others: at the highest dose activity, negative = inhibition, usual class: inhibitors; further: on the % scale 0 is the no-effect control and ±100 the full control effect; nearly all actives have a fitted effect of over 55% in size
Target sequence (P10636 561-689 P618L limits assumed): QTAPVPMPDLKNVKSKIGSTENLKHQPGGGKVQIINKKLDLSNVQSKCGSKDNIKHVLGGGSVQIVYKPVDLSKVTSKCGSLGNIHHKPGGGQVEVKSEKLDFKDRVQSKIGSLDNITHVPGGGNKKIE
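ThT emission at 510 nm, taken 1 hr after adding 30 uM dye, quantifies aggregates formed when 20 uM heparin acts on human tau K18 P301L for 6 hr at 37 C.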
L3MBTL1 block – L3MBTL1 (human) inhibition; AlphaScreen L3MBTL1–H3K9me1 peptide binding; Potency, µM (top dose mostly 57.1 µM), for the others: at the highest dose activity, negative = inhibition, hits mostly inhibitors; actives 0.66% (n = 230,000); further: on the % scale 0 is the no-effect control and ±100 the full control effect; nearly all actives have a fitted effect of over 60% in size
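L3MBTL1 (50 nM) pre-complexed 30 min with biotinylated H3(1-15)K9me1 peptide (75 nM), then compounds added for 30 min at room temperature; AlphaScreen streptavidin donor/nickel chelate acceptor beads (10 ug/mL final) read after 30 min dark incubation.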
Luc counter – blocks Kinase-Glo luciferase, a counter-screen artifact; Q27757; Kinase-Glo luciferase, ATP luminescence, 8 min; Potency, µM (titrated, usually from 38.3 µM), without a hit: top-dose activity change, negative = inhibition, actives largely listed as inhibitors; actives 0.28% (n = 200,000); AID 1379; further: on the % scale 0 is the no-effect control and ±100 the full control effect; nearly all actives have a fitted effect of over 60% in size
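Compounds were added to a substrate mix at pH 7.2 (50 mM imidazole, 10 uM ATP, within the enzyme's linear range), followed by Kinase-Glo detection reagent; luminescence was measured after 8 minutes at ambient temperature.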
LMNA splice mod – LMNA splicing modulation. HeLa LMNA splicing GFP/RFP minigene ratio, 48 h. Potency, µM (titrated, usually from 46.1 µM), for inactives: top-dose ratio change, negative = inhibition, hits mostly inhibitors. actives 0.01% (n = 200,000). AID 1487; active means well fitted inhibition curve with a large enough effect in the signal ratio, with a control signal flat, not every such curve was filed as active; inconclusive means small, poorly fitted or top-dose-only effect, or effect the other way, or a change in a side signal; the % refers to the signal ratio; further: on the % scale 0 is the no-effect control and ±100 the full control effect
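S3 HeLa cells stably expressing lamin A-EGFP splicing minigene plus DsRed2, 600 cells/well, 48 h compound exposure at 37C. Laser-scanning cytometry; analysed as GFP (500-530 nm)/RFP (575-640 nm) total intensity ratio; 0.5% DMSO vehicle.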
ALDH1A1 block – ALDH1A1 (human) enzyme inhibition. Purified ALDH1A1, NADH fluorescence, propionaldehyde substrate. Potency, µM (titrated, usually from 75.3 µM), for the others: top-dose activity, negative = inhibition, usual class: inhibitors. actives 7.3% (n = 220,000); active means well fitted inhibition curve with a large enough effect, not every such curve was filed as active; inconclusive means small, poorly fitted or top-dose-only effect, or another doubt; inactive means no such curve, though single readings can be large or run the other way;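 further: plate controls were no enzyme wells and a reference inhibitor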
Target sequence (P00352 whole entry, looked up): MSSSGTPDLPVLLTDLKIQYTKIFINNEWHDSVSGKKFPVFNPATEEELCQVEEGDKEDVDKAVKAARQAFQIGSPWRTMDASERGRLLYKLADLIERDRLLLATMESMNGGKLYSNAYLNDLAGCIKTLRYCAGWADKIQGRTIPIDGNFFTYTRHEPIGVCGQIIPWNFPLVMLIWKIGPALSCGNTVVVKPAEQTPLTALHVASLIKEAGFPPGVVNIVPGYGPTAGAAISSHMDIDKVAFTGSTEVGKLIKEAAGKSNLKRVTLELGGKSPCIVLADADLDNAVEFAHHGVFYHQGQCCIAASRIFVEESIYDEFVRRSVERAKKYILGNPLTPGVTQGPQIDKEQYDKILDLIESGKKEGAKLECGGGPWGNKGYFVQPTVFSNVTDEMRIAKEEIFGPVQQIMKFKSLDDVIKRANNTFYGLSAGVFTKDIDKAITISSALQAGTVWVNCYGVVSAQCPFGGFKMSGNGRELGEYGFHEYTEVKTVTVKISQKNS
* = called active by the depositor; i = inactive; ? = inconclusive; nt = not tested or not shown; [ ] = another dose, or the depositor's remark. Unless noted, the call rests on the fitted dose curve; in most records, active means well fitted curve in the direction sought with a large enough effect; inconclusive means small, poorly fitted or top-dose-only effect, or another doubt; inactive means no such curve, though single readings can be large; an effect the other way counts as inactive or inconclusive. Potency means the concentration at half of the fitted maximal effect. Not all compounds are listed (hit frequency here may not be typical).

SMILES	SMN2 splice enh	RECQ1 inh	Tau ThT inhib	L3MBTL1 block	Luc counter	LMNA splice mod	ALDH1A1 block
COc1ccc(N2C(=O)CC(Sc3nc4c(cc3C#N)CCC4)C2=O)cc1 (configuration not stated)	nt	-4%	?	-4%	-7%	?	-7%
CCOCCCNCC(=O)Nc1ccc(S(=O)(=O)NC(C)CC)cc1 (configuration not stated)	-8%	2%	11%	-16%	-3%	9%[46 µM]	?
O=C(O)Cc1cc2ccccc2nc1C(=O)O	nt	-5%	-13%	nt	-1%	nt	?
CCc1ccc2[nH]c(=O)c(CN(Cc3ccco3)S(=O)(=O)c3ccc4c(c3)OCCO4)cc2c1	-8%	28%	-2%	-6%	14%	22%	?
C[C@H](NC(=O)c1nc[nH]c1C(=O)NC1CCN(C(=O)OC(C)(C)C)CC1)C(=O)OCc1ccccc1	nt	-16%	-3%	?	nt	nt	5%
O=C(CNCCC1=CCCCC1)Nc1ccccc1N1CCCCCC1	nt	i	-12%	nt	nt	nt	nt
Cc1ccc(-c2nn(-c3ccccc3)c3[nH]c(=O)c(CNCCN(C)C)cc23)cc1	16%	i	-17%	nt	-1%	-19%	?
N#C/C(=C\c1ccc(OC(=O)c2ccccn2)cc1)C(N)=O	0%	-7%	?	?	-1%	-12%	?
CC(=O)C1=C(C)NC(SCC(N)=O)=C(C#N)C1c1ccco1 (configuration not stated)	15%	32%[activator]	-15%	14%	2%	nt	-12%
CN1CCN(c2cc(-c3ccccc3)nc3cc(-c4ccc(F)cc4)nn23)CC1	-9%	i	?	nt	0%	6%	?
O=C(Nc1cccc(-c2nc3ccccc3[nH]2)c1)c1ccco1	5%	i	18%	0%	9%	-9%	8%
CCOC(=O)N1CCN(CC(O)COc2ccccc2C(C)C)CC1 (configuration not stated)	-14%	-17%	0%	0%	3%	4%[0.0737 µM]	-2%
CCOC(=O)c1ccc(Nc2nnc(C(C)(C)C)c(=O)[nH]2)cc1	nt	i	?	3%	nt	?	14µM*
O=C(CSCc1ccc([N+](=O)[O-])cc1)N/N=C/c1cccnc1	nt	-2%	0%	2%	-2%	-4%[46 µM]	?
CC(C)OCCCN(CC(O)c1ccccc1)CC(O)c1ccccc1 (configuration not stated)	7%	0%	-6%	1%	1%	9%	-7%
COc1ccc2c(C)cc(N3CCCCCC3)nc2c1	-30%	15%	-3%	nt	8%	nt	?
CCOC(=O)c1c2c(c(=S)n(-c3ccccc3)c1N)CCC2	nt	3%	25µM*	?	nt	-3%	14µM*
CC1CCCCC1NCC#CCOc1ccc(Cl)cc1 (configuration not stated)	-7%	i	-7%	8%[11.4 µM]	2%	-14%[46 µM]	-25%
O=C(Nc1cccc(F)c1)N1C2CCC1CC(O)(c1cccnc1)C2 (configuration not stated)	nt	-3%	-3%	-4%	-4%	nt	3%
COc1ccc(CN(C)CC(=O)Nc2ccccc2C(F)(F)F)c(OC)c1	8%	-11%	-2%	0%	-2%	1%	?
c1ccc(C2Nc3ccccc3-c3nc4ccccc4n32)cc1 (configuration not stated)	26%	-12%	?	nt	-3%	-2%	?
CC(NC(=O)COC(=O)CCc1ccccc1)c1ccccc1 (configuration not stated)	-5%	i	2%	2%	3%	0%	7%
CC1CCN(CC(=O)Nc2cccc(Cl)c2)CC1	-5%	i	1%	5%	3%	-5%[46 µM]	2%
CCCS(=O)(=O)N1CCN(C2CCC(C)CC2)CC1 (configuration not stated)	1%	i	1%	8%	-4%	2%[46 µM]	?
COc1ccc(CCN(C)CC(=O)Nc2cc(C)nc3ccccc23)cc1OC	nt	2%	-17%	nt	nt	5%[46 µM]	nt

Other results follow.
SMILES	SMN2 splice enh	RECQ1 inh	Tau ThT inhib	L3MBTL1 block	Luc counter	LMNA splice mod	ALDH1A1 block
O=C(NC(=S)Nc1cccnc1)c1cccs1	nt	-3%	-15%	-2%	-10%	-3%[46 µM]	?
Fc1ccc(CSc2ccc3nnc(-c4cccnc4)n3n2)cc1	8%	i	-5%	-6%	-1%	?	2%
COc1cc(C(C)=O)ccc1OCCN1CCC(Cc2ccccc2)CC1	-20%	i	0%	0%[11.4 µM]	-2%	nt	?
Cc1ccc(OCCn2c(C3CC(=O)N(Cc4ccccc4)C3)nc3ccccc32)cc1 (configuration not stated)	-23%	i	?	-4%	6%	?	-12%
CCCCN1CCCCC1C(=O)Nc1c(C)cc(C)cc1C (configuration not stated)	?	-11%	-14%	nt	-6%	-2%	-6%
CCOC(=O)c1c(NC(=O)CN(C)C2CCN(C)CC2)sc(C(=O)Nc2ccccc2)c1C	-21%	-8%	-3%	-21%	4%	-1%[9.22 µM]	?
CC(C)c1cccc(OCCCCN(C)C)c1	-9%	0%	5%	nt	3%	?	?
Cc1ccc(OCc2nnc(SCC(=O)Nc3cc(C)on3)n2C)cc1	nt	i	-14%	nt	-3%	7%	7%
COC(=O)CCC(=O)OC1(C)C(=O)C=C2C=C(C3CC3)N(CC3CC3)C=C2C1=O (configuration not stated)	10%[9.22 µM]	-7%[11.5 µM]	?	nt	-4%[7.66 µM]	-7%[9.22 µM]	2%[13.5 µM]
O=C1NC[C@@H](Cc2ccc(O)cc2)N(CCc2cccc(F)c2)C1=O	nt	-10%	12%	nt	nt	nt	nt
CCC(=O)c1ccc(OC(C)C(=O)NC2(C#N)CCCCC2)cc1 (configuration not stated)	18%	-1%	-1%	-2%	2%	nt	1%
Cc1cc(C)nc(NS(=O)(=O)c2ccc(N/C=C\C(=O)c3cccs3)cc2)n1	3%	i	-16%	-9%	4%	-16%[46 µM]	?
CC(=O)Nc1c(C)nn(-c2ccc([N+](=O)[O-])cc2)c1C	nt	i	-1%	-10%	0%	4%[46 µM]	?
CC1(C)CC(NCc2ccncc2)CC(C)(C)N1	-5%	-4%	-8%	4%	0%	?	-4%
CC(C)C(C(=O)N1CCOCC1)N1C(=O)c2ccccc2C1=O (configuration not stated)	-1%	-5%	-1%	nt	-3%	9%	?
O=C(O)CCSc1nnc(COc2cccc3cccnc23)n1-c1ccccc1	5%	i	4%	-2%[11.4 µM]	6%	-10%[46 µM]	-4%
O=C(Oc1cccc2cccnc12)c1cccc([N+](=O)[O-])c1	nt	i	?	?	-3%	nt	5%
COc1ccccc1OCC(=O)Nc1ccc(-c2nnc(-c3ccco3)o2)cc1	5.6µM*	-2%	-12%	2%	-4%	10%[46 µM]	-7%
CC(=O)n1cc(C(C[N+](=O)[O-])SCCN)c2ccccc21 (configuration not stated)	nt	0%	13µM*	-9%	-4%	77%	4%
Cc1ccc(S(=O)(=O)N2CCOCC2)cc1NC(=O)CNCc1cccnc1	nt	i	0%	nt	nt	nt	nt
Nc1ccc2nc(Cc3ccccc3)[nH]c2c1	nt	i	?	nt	nt	?	nt
Cn1c(Cl)c(/C=N/OC(=O)c2ccccc2Cl)c2ccccc21	-1%	-1%	-7%	11%	3%	-13%	1%
O=C(Nc1ccc2oc(=O)ccc2c1)c1ccc(-c2cccc(Cl)c2)o1	nt	i	-11%	nt	nt	nt	nt
Cc1noc(C)c1C(=O)NNc1ccc(C(C)C)cc1	nt	1%	?	-12%	nt	nt	11µM*
Cc1ccc(CNC(=O)c2ccc(N(C)C)cc2)cc1	30%	-5%	0%	-6%	0%	nt	?

Carrying on.
SMILES	SMN2 splice enh	RECQ1 inh	Tau ThT inhib	L3MBTL1 block	Luc counter	LMNA splice mod	ALDH1A1 block
Cc1cc(Br)ccc1OCCN1CC(C)OC(C)C1 (configuration not stated)	-10%	-4%	-1%	-3%	-1%	-6%[46 µM]	?
O=c1c2cn[nH]c2[nH]c(=S)n1-c1ccccc1F	14µM*	-5%	?	1%	-7%	8%	-16%
O=S(=O)(CCCc1ccccc1)c1ncn[nH]1	nt	-6%	3%	3%	nt	-1%	3%
CCNc1nc(C(=O)O)nc(N2CCOCC2)n1	5%	i	-5%	-17%	0%	-5%[46 µM]	2%
COC(=O)CCC(=O)OC1(C)C(=O)C=C2C=C(C3CC3)N(Cc3ccc(OC)cc3)C=C2C1=O (configuration not stated)	-7%[9.22 µM]	4%[11.5 µM]	?	nt	-7%[7.66 µM]	3%[9.22 µM]	?
Cc1ccc(Oc2c(C)nc(-c3ccccc3)[nH]c2=O)cc1	nt	-6%	-8%	0%	nt	nt	nt
C/C=C/C=C/C(=O)OCC(=O)Nc1ccc(Cl)cc1	-15%	-16%	-2%	6%	-3%	?	-3%
COc1ccc(OCCNC(=O)CSc2ccc(C(F)(F)F)cc2[N+](=O)[O-])cc1	-11%[1.84 µM]	-5%	-11%	2%	0%	-9%	-4%
O=[N+]([O-])C(=C1Nc2ccccc2N1)C(Cl)=C(Cl)Cl	nt	i	?	-2%	2%	nt	6.3µM*
CCn1nc(NC(=O)c2cccnc2)c2cc3cccc(C)c3nc21	-21%	-12%	-11%	2%	-4%	-10%	-13%
COc1ccc(CCNc2ncnc3sccc23)cc1OC	-73%[inhibitor]	-3%	-6%	9%	-4%	?	7%
COc1ccc(/C(O)=C2/C(=O)C(=O)N(CC3CCCO3)C2c2ccc(O)c(OC)c2)cc1 (configuration not stated)	8%	8%	-13%	-18%	0%	0%[9.22 µM]	?
N#Cc1cc(Sc2ccccn2)c([N+](=O)[O-])cc1C#N	-4%	?	14µM*	nt	-5%	-20%[46 µM]	?
CC(NS(=O)(=O)c1ccc([N+](=O)[O-])cc1)C(=O)NN (configuration not stated)	7%	-2%	3%	2%	2%	2%[46 µM]	12%
CCN(CC)c1nc(-c2ccccc2)cc(C(F)(F)F)c1C#N	-11%	-2%	6%	25%	1%	-8%	?
CCOC(=O)c1c(C)[nH]c(C(=O)CN2CCN(CC)CC2)c1C	nt	-5%	nt	nt	nt	nt	nt
Cc1ccc(NC(=O)CN(C)CC(=O)Nc2ccc(F)c(Cl)c2)cc1	-5%	i	-5%	?	-5%	-9%[46 µM]	?

4 entries from above in a different format:
canonical_smiles | SMN2 splice enh | RECQ1 inh | Tau ThT inhib | L3MBTL1 block | Luc counter | LMNA splice mod | ALDH1A1 block
O=S(=O)(CCCc1ccccc1)c1ncn[nH]1 | nt | -6% | 3% | 3% | nt | -1% | 3%
CCNc1nc(C(=O)O)nc(N2CCOCC2)n1 | 5% | i | -5% | -17% | 0% | -5%[46 µM] | 2%
COC(=O)CCC(=O)OC1(C)C(=O)C=C2C=C(C3CC3)N(Cc3ccc(OC)cc3)C=C2C1=O (configuration not stated) | -7%[9.22 µM] | 4%[11.5 µM] | ? | nt | -7%[7.66 µM] | 3%[9.22 µM] | ?
Cc1ccc(Oc2c(C)nc(-c3ccccc3)[nH]c2=O)cc1 | nt | -6% | -8% | 0% | nt | nt | nt
